Source: PubChem BioAssay
NPYLR7 ag: agonists of mosquito NPYLR7 receptor, primary screen, cell-based, Aedes aegypti, calcium fluorescence, mosquito biting behavior | 270,000 tested, 0.15% active | HEK293T NPYLR7/Galpha15, GCaMP6s calcium fluorescence | activation, % at 10 µM | AID 1259423, 2018; in the data active = activation above about 40%;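 note: 0% = vehicle and 100% = reference agonist at the receptor; some compounds past the cut are filed as inactive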
NPYLR7 ag max-min: second read-out of NPYLR7 ag, no call of its own (marks repeat the call); activation, %; measured here: Max-Min RFU normalised activation; some inactives read as strong as hits;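 span of the calcium signal over five minutes; 0% = vehicle and 100% = native peptide agonist; compound fluorescence can raise it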
* = called active by the depositor; & = joins results of further samples. The list is partial. The share of hits here may be higher or lower than overall.

What do the screens show for `CC(=O)Nc1ccc(C(=O)Nc2nc(C(C)C)cs2)cc1`?
NPYLR7 ag: 8; NPYLR7 ag max-min: 7

Results for CC(C)c1nn(CC(=O)OCc2ccccc2)c(=O)c2c1cnn2-c1ccc(F)cc1 ?
NPYLR7 ag: 7; NPYLR7 ag max-min: 6

What do the screens show for `CCOC(=O)c1ccc(NC(=O)N2CCc3cc(OC)c(OC)cc3C2c2ccccc2Cl)cc1` (stereo not given)?
NPYLR7 ag: 13; NPYLR7 ag max-min: 9

What do the screens show for `CCOc1ccc(C)cc1S(=O)(=O)Nc1ccc(F)cc1`?
NPYLR7 ag: 4; NPYLR7 ag max-min: 6

What do the screens show for `Cn1ccc(NC2CCN(c3ccccc3)C2=O)n1` (stereo not given)?
NPYLR7 ag: -25; NPYLR7 ag max-min: -26

What do the screens show for `O=C(CCn1cnc2sccc2c1=O)NCc1ccc(C(=O)N2CCCC2)cc1`?
NPYLR7 ag: 3; NPYLR7 ag max-min: 4

How did CNC(=O)c1ccc(CNC(=O)Nc2ccc(C)s2)cc1 do in these assays?
NPYLR7 ag: -1; NPYLR7 ag max-min: -3

How did O=C1/C(=C\c2ccccc2)CCC1C1=NCCN1C1CC(=O)N(c2cccc(F)c2)C1=O (stereo not given) do in these assays?
NPYLR7 ag: 1; NPYLR7 ag max-min: 0

How did O=C(c1ccno1)N1CCC(n2c(=O)oc3ccc(Cl)cc32)CC1 do in these assays?
NPYLR7 ag: 3; NPYLR7 ag max-min: 0

Results for Cc1ccn(CCCn2cnc(-c3ccccc3)c2-c2cccnc2)n1 ?
NPYLR7 ag: 14; NPYLR7 ag max-min: -6

How did Cn1c(C2CCCN(S(C)(=O)=O)C2)nn(CC(=O)NCc2ccc(F)cc2)c1=O (stereo not given) do in these assays?
NPYLR7 ag: -4; NPYLR7 ag max-min: 3

Results for Nc1ccccc1C12CC3CC(CC(C3)C1)C2 ?
NPYLR7 ag: 8; NPYLR7 ag max-min: 7

How did CCC(C(=O)NCC1(CO)CCC1)n1cc(C(C)=O)c2ccccc21 (stereo not given) do in these assays?
NPYLR7 ag: -11; NPYLR7 ag max-min: -14

Results for Cc1ccc(C(N)=O)c(N2CC[C@@H](c3ccc4c(c3)OCO4)[C@H](O)C2)n1 ?
NPYLR7 ag: 2; NPYLR7 ag max-min: 0

Results for CCN1CCN(C(c2ccc([N+](=O)[O-])cc2)C2Sc3nc(-c4ccco4)nn3C2=O)CC1 (stereo not given) ?
NPYLR7 ag: 0; NPYLR7 ag max-min: -3

How did CN1CCC(=NNc2ncnc3sc4c(c23)CCCC4)CC1 do in these assays?
NPYLR7 ag: -1; NPYLR7 ag max-min: -2

Results for CCC(CC)c1nnc(NC(=O)CN(C)S(=O)(=O)c2ccc(Cl)cc2)s1 ?
NPYLR7 ag: -1; NPYLR7 ag max-min: 0

Results for CN(C)CC(C)(C)C1OCC2(CO1)COC(C(C)(C)CN(C)C)OC2 (stereo not given) ?
NPYLR7 ag: 3; NPYLR7 ag max-min: 24

How did CC(C)Cc1nc(N2CCCN(C(=O)c3cccs3)CC2)c2c(-c3cccc(Oc4ccccc4)c3)noc2n1 do in these assays?
NPYLR7 ag: 18; NPYLR7 ag max-min: 7

Results for CC(NC(=O)CSCc1nc2sc3c(c2c(=O)[nH]1)CCC3)c1cccc(S(N)(=O)=O)c1 (stereo not given) ?
NPYLR7 ag: 4; NPYLR7 ag max-min: 2

Results for COc1ccc(-c2cc(C(F)(F)F)c3nc(OC(C)C(C)=O)oc3n2)cc1OC (stereo not given) ?
NPYLR7 ag: -7; NPYLR7 ag max-min: -11

Results for CCOC(=O)c1cn[nH]c1S(=O)(=O)N1CCOCC1 ?
NPYLR7 ag: 1; NPYLR7 ag max-min: 4

How did CNC(=O)C1SC(=NCc2ccccc2)N(C)N=C1C (stereo not given) do in these assays?
NPYLR7 ag: -24; NPYLR7 ag max-min: -25

Results for Cc1cc(C(=O)COC(=O)c2cccn2C)c(C)n1C(C)C ?
NPYLR7 ag: 2; NPYLR7 ag max-min: 10

Results for C=CCN(CC=C)c1cc(Oc2ccc(F)cc2Cl)ncn1 ?
NPYLR7 ag: 4; NPYLR7 ag max-min: 6

How did CCn1cc(C(CC(=O)NCCCN2CCOCC2)c2ccc3c(c2)OCO3)c2ccccc21 (stereo not given) do in these assays?
NPYLR7 ag: 5; NPYLR7 ag max-min: 15

Results for CCOc1ccc(C2NC(=O)N(C)C3=C2C(=O)N(CCOC)C3)cc1 (stereo not given) ?
NPYLR7 ag: -4; NPYLR7 ag max-min: 0

How did N#Cc1cc2c([nH]c1=S)CCCCCC2 do in these assays?
NPYLR7 ag: 1&0; NPYLR7 ag max-min: 2&-2

What do the screens show for `Cc1cn(CC(=O)NCCN2CCCCCC2=O)c2ccccc12`?
NPYLR7 ag: 1; NPYLR7 ag max-min: -1

What do the screens show for `COc1ccc(NC(=O)c2cn3c(nc(=O)c4ccccc43)s2)cc1`?
NPYLR7 ag: 0; NPYLR7 ag max-min: -4

Results for COc1ccc(CNC(=O)CCc2ccc(-c3ccc(C)cc3C)n2-c2ccc(CC#N)cc2)cc1 ?
NPYLR7 ag: 1; NPYLR7 ag max-min: -2

How did CCc1ccc2oc(=O)cc(CN3CCC(Oc4cccnc4)CC3)c2c1 do in these assays?
NPYLR7 ag: 1; NPYLR7 ag max-min: 0

What do the screens show for `CC(C)(C)c1cc2nc(-c3ccc(F)cc3)cc(C(=O)N3CCC(n4c(=O)[nH]c5ccccc54)CC3)n2n1`?
NPYLR7 ag: 6; NPYLR7 ag max-min: 11

How did COc1ccc(N2C(=O)NC3CC2(C)Oc2ccc(Cl)cc23)c(OC)c1 (stereo not given) do in these assays?
NPYLR7 ag: -8; NPYLR7 ag max-min: -12

Results for Fc1cccc(CN2CCN(Cc3cnc(C4CCCCC4)nc3)CC2)c1 ?
NPYLR7 ag: 9; NPYLR7 ag max-min: 8

Results for Cc1onc(-c2ccccc2Cl)c1C(=O)NC(c1ccc(S(C)(=O)=O)cc1)c1cccc(N(C)C)c1 (stereo not given) ?
NPYLR7 ag: -6; NPYLR7 ag max-min: -9

What do the screens show for `O=C(CCc1ccccc1)NCCNS(=O)(=O)c1cccc(Cl)c1`?
NPYLR7 ag: 1; NPYLR7 ag max-min: 0

How did O=C(c1cc2n(n1)C(C(F)(F)F)CC(c1ccco1)N2)N1CCCCC1 (stereo not given) do in these assays?
NPYLR7 ag: -2; NPYLR7 ag max-min: -5

What do the screens show for `CN1[C@H]2CC[C@@H]1CN(C(=O)c1cnn(Cc3ccccc3)c1)CC2`?
NPYLR7 ag: 4; NPYLR7 ag max-min: 4

Results for COc1ccccc1-n1c(SCc2ccc(C(=O)N3CCN(c4ccccc4F)CC3)cc2)nnc1-c1cccs1 ?
NPYLR7 ag: 3; NPYLR7 ag max-min: 14

What do the screens show for `CC(c1ccccc1)N(C)C(=O)c1cccc(CN2C(=O)CNC2=O)c1` (stereo not given)?
NPYLR7 ag: -3; NPYLR7 ag max-min: -4

How did Oc1ccc(Br)cc1C=NCCC1=CCCCC1 do in these assays?
NPYLR7 ag: 2; NPYLR7 ag max-min: 5

How did O=C(N[C@H]1CCC[C@H]1Cc1ccc(F)cc1)C(=O)c1ccco1 do in these assays?
NPYLR7 ag: 3; NPYLR7 ag max-min: 1

What do the screens show for `CN(C)c1ccc(NC(=O)c2ccccc2Cl)cc1CN(CC1CCCO1)C(=O)c1cccc(F)c1` (stereo not given)?
NPYLR7 ag: -2; NPYLR7 ag max-min: 10

How did CCOc1ncccc1CNC(=O)C1Cc2ccccc2CN1CC (stereo not given) do in these assays?
NPYLR7 ag: -3; NPYLR7 ag max-min: -8

How did CCOC(=O)C1CCCN(C(=O)c2cccc(Nc3c(OCC)cnn(-c4ccc(Cl)cc4)c3=O)c2)C1 (stereo not given) do in these assays?
NPYLR7 ag: 4; NPYLR7 ag max-min: 3

What do the screens show for `CC(=O)Nc1ccc(C(=O)n2ccc(C)cc2=NC2CCCCC2)cc1`?
NPYLR7 ag: 3; NPYLR7 ag max-min: 1

What do the screens show for `COc1ccc(C2c3c(C)nn(-c4ccc(F)cc4)c3N=C3CC(C)(C)CC(=O)C32)cc1` (stereo not given)?
NPYLR7 ag: 26; NPYLR7 ag max-min: 12

What do the screens show for `CC1CCCC(C)N(C(=O)c2ccc(CNS(C)(=O)=O)o2)C1` (stereo not given)?
NPYLR7 ag: 1&-1; NPYLR7 ag max-min: 0&-1

How did CCOC(=O)C1CCN(C(=O)c2cc(COc3ccc(OC)c4ccccc34)on2)CC1 do in these assays?
NPYLR7 ag: 4&-2; NPYLR7 ag max-min: 3&-3

How did CC(C(=O)O)c1ccc2c(c1)Cc1cccnc1O2 (stereo not given) do in these assays?
NPYLR7 ag: 5; NPYLR7 ag max-min: 10

Results for CCN(CC)C(=O)c1cc(-c2ccccc2OC)n2nc(C(C)(C)C)cc2n1 ?
NPYLR7 ag: -6&8; NPYLR7 ag max-min: 2&17

How did CC(=O)Nc1cccc(NC(=O)c2ccc(CN3CCCC(C)(O)C3)cc2)c1 (stereo not given) do in these assays?
NPYLR7 ag: 4; NPYLR7 ag max-min: 1

Results for O=C(Nc1ccc(C2SCC(=O)N2c2ccc(C(F)(F)F)cc2)cc1)c1ccccc1Cl (stereo not given) ?
NPYLR7 ag: 7; NPYLR7 ag max-min: 27

What do the screens show for `Cc1nnsc1CN(C)C(=O)Cc1cc2c(cc1Cl)OCCO2`?
NPYLR7 ag: -4; NPYLR7 ag max-min: -7

What do the screens show for `Cc1oc2cc(OCc3ccc(F)cc3)ccc2c(=O)c1-c1ccc2c(c1)OCCCO2`?
NPYLR7 ag: 17; NPYLR7 ag max-min: 20

What do the screens show for `Cc1nc2sccn2c1C(=O)NC1CC(C)(C)Cc2c1cnn2-c1ccccc1` (stereo not given)?
NPYLR7 ag: 20; NPYLR7 ag max-min: 14

What do the screens show for `CCC(=O)Nc1ccc(-n2nc(OC)nc2-c2cccc(OC)c2)cc1`?
NPYLR7 ag: -4; NPYLR7 ag max-min: -2

Results for C=c1cc(C)n(CC(=O)Nc2c(C)cccc2C)c(=O)c1=C1N=C(c2ccccc2)NO1 ?
NPYLR7 ag: -2; NPYLR7 ag max-min: -7

Results for CCCN(CC(=O)N1CCc2sccc2C1COc1ccc(F)cc1)CC(O)COc1ccccc1C (stereo not given) ?
NPYLR7 ag: 8; NPYLR7 ag max-min: 7

Results for CC1CCCCN1C(=O)CSc1nnc(Nc2cccc(F)c2)s1 (stereo not given) ?
NPYLR7 ag: 4; NPYLR7 ag max-min: -3

How did CCC(NS(=O)(=O)C1=Cc2ccc(OC(F)F)cc2CC1)c1noc(C)n1 (stereo not given) do in these assays?
NPYLR7 ag: 0; NPYLR7 ag max-min: -2

Results for COc1ccc(C(=O)N2C(C(=O)NC(C)c3ccccc3)COC23CCN(C(=O)Cc2cccs2)CC3)cc1 (stereo not given) ?
NPYLR7 ag: 1; NPYLR7 ag max-min: 8

Results for COc1cc(OC)cc(C(=O)NNS(=O)(=O)c2cccc([N+](=O)[O-])c2)c1 ?
NPYLR7 ag: 16; NPYLR7 ag max-min: 11

What do the screens show for `CCN(CCc1nc2ccc(C)cc2[nH]1)C(=O)c1ccc2ncccc2c1`?
NPYLR7 ag: 9; NPYLR7 ag max-min: 0

Structures listed so far containing a cyano group (2):
How did N#Cc1cc2c([nH]c1=S)CCCCCC2 do in these assays?
NPYLR7 ag: 1&0; NPYLR7 ag max-min: 2&-2

Results for COc1ccc(CNC(=O)CCc2ccc(-c3ccc(C)cc3C)n2-c2ccc(CC#N)cc2)cc1 ?
NPYLR7 ag: 1; NPYLR7 ag max-min: -2

Structural class, those above containing an NH in an aromatic ring.
Results for CC(NC(=O)CSCc1nc2sc3c(c2c(=O)[nH]1)CCC3)c1cccc(S(N)(=O)=O)c1 (stereo not given) ?
NPYLR7 ag: 4; NPYLR7 ag max-min: 2

Results for CCOC(=O)c1cn[nH]c1S(=O)(=O)N1CCOCC1 ?
NPYLR7 ag: 1; NPYLR7 ag max-min: 4

How did N#Cc1cc2c([nH]c1=S)CCCCCC2 do in these assays?
NPYLR7 ag: 1&0; NPYLR7 ag max-min: 2&-2

What do the screens show for `CC(C)(C)c1cc2nc(-c3ccc(F)cc3)cc(C(=O)N3CCC(n4c(=O)[nH]c5ccccc54)CC3)n2n1`?
NPYLR7 ag: 6; NPYLR7 ag max-min: 11

What do the screens show for `CCN(CCc1nc2ccc(C)cc2[nH]1)C(=O)c1ccc2ncccc2c1`?
NPYLR7 ag: 9; NPYLR7 ag max-min: 0
